Bioassay records as filed in PubChem BioAssay.
HPGD inh: blocks human HPGD enzyme activity; P15428; purified HPGD, NADH fluorescence kinetic, PGE2 substrate; Potency, µM, inactives show at the top dose activity change, negative = inhibition, actives largely listed as inhibitors; 4.3% of 150,000 active; AID 894; active = well fitted inhibition curve with a large enough effect (not every such curve was filed as active); inconclusive = small, poorly fitted or top-dose-only effect, or another doubt; inactive = no such curve, though single readings can be large or run the other way;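 further: top concentration of the series not given in the record; plate controls included wells without enzyme; inactives centre near -10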
Target sequence (P15428 whole entry, looked up): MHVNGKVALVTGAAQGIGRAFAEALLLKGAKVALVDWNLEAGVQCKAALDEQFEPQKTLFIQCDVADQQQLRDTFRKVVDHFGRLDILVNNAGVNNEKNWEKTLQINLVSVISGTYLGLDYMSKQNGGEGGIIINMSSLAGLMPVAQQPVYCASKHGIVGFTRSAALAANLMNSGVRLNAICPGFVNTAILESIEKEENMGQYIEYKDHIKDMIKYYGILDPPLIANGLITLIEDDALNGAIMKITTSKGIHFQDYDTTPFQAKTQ
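NADH formation kinetics: reaction with 30 uM PGE2 and 1 mM NAD+ (final), 20 nM enzyme, Tris-HCl pH 8 with Tween 20, after 15 min compound preincubation at room temperature. Fluorescence change, last versus first of five reads.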
Starred values were filed as active, the others as inactive; ? = inconclusive; & = joins results of further samples. On the % scale 0 is the no-effect control and ±100 the full control effect; potency means the concentration at half of the fitted maximal effect. An excerpt; rates above refer to the full screens.

SMILES	HPGD inh
Cc1cc(C(=O)CN2C(=O)NC3(CCCCC3)C2=O)c(C)n1Cc1ccc2c(c1)OCO2	-6%
COC(=O)C(Cc1c[nH]c2ccccc12)NC(C)=O (stereo not given)	-1%
COc1ccc(OCC(O)CN2C(=O)NC(C)(C)C2=O)cc1 (stereo not given)	-4%
Cc1ccnc(Nc2nc(-c3c(C)nc4sccn34)cs2)c1	-11%
O=C(CSc1nc2ccccc2s1)Nc1nccs1	-5%
Cc1ccc(OCC(=O)Nc2ccc(N3CCCC3)cc2)cc1C	-12%
COc1cc([N+](=O)[O-])ccc1-c1ccc(C(=O)Nc2ccc(NC(C)=O)cc2)o1	28µM*
CCCOc1cccc(C(=O)Nc2cccc(NC(=O)c3ccco3)c2)c1	-13%
CCOc1ccc(CCNC(=O)COC(=O)/C=C/c2ccc(OCC#N)c(OC)c2)cc1OCC	-26%
NC(Cn1ccc(=O)c(O)c1)C(=O)O (stereo not given)	-6%
Cn1c(N)c(C(=O)CSc2ccccn2)c(=O)n(C)c1=O	6%
CCCn1c(N)c(N(C)C)c(=O)n(CC(=O)Nc2ccc(OC(F)(F)F)cc2)c1=O	-4%
CC(C)c1[nH]nc2c1C1(CCN(Cc3ccccc3)CC1)C(C#N)=C(N)O2	3%
Cc1ccn(Cc2n[nH]c(=S)n2Cc2ccccc2)n1	-6%
CC1(C)CC(c2csc(N)n2)CCO1 (stereo not given)	-9%
CN(C)Cc1ccccc1	-5%
COc1ccccc1-c1c(C(F)(F)F)oc2cc(OC(=O)c3ccccc3[N+](=O)[O-])ccc2c1=O	-18%
Cc1ccc(NCc2nnc(SCC(=O)OC3CCCCC3)o2)c(C)c1	-10%
COc1ccc(-n2c(=O)cc(N3CC(C)OC(C)C3)[nH]c2=O)cc1 (stereo not given)	-2%
C=CCn1c(C)cc(C2=NNC(=NCC)SC2)c1C	-10%
O=S(=O)(c1ccccc1)c1nc(-c2ccco2)oc1NCCN1CCOCC1	-18%
Cc1c(C(=O)O)sc2ncn(C)c(=O)c12	?
COC(=O)COc1ccc(S(=O)(=O)Nc2ccc(NC(C)=O)cc2)cc1C	-9%
CC(C)CN1CN(S(=O)(=O)c2cccs2)c2nc3ccccc3nc21	-13%
Nc1ccc(N2CCN(C(=O)c3ccco3)CC2)cc1	0%
O=C(CN1CCC(c2nc3ccccc3s2)CC1)NCc1ccccc1	-4%
COc1cccc(Nc2ncnc3c2cnn3C)c1	-10%
CC(C)C(C)/C=C/C(C)C1CCC2C3=CCC4CC(=O)CC[C@@]4(C)C3CC[C@]21C (stereo not given in full)	-7%
COc1ccc(CNC(=O)CSc2nc3ccc(N)cc3s2)cc1	-1%
CC(=O)N1CCN(CC(=O)Nc2ccccc2Sc2ccccc2)CC1	0%
CCOC(=O)c1c(C)c(C(=O)NCc2ccccn2)c(C)n1CC	-11%
CCCn1cnc2c(c1=O)c1nc3ccccc3nc1n2CCc1ccccc1	?
COc1ccc(-n2c(C)nn(C)c2=O)c(OC)c1	-5%
Cc1nn(-c2ccc(F)cc2)c2c1cc(C#N)c1nc3ccccc3n12	?
COC(=O)[C@@H]1[C@@H](C)OC(=O)N[C@H]1c1ccccc1	-1%
O=C1NN(c2ccc(F)cc2)C(=O)/C1=C\C=C\c1ccco1	-12%
O=C1COc2ccc(C(=O)c3ccccc3)cc2CN1	-5%
CC1CCCC(NC(=O)Nc2cccs2)C1C (stereo not given)	-12%
COC(=O)N/N=C/c1cn(CCCOc2ccc(C)cc2)c2ccccc12	-25%
Cc1sc2nc(CN(Cc3cccs3)C(=O)C3CC3)[nH]c(=O)c2c1C	-9%
COc1ccc(C2(CNC(=O)c3ccco3)CCOCC2)cc1	-8%
CN(C1CCCCC1)S(=O)(=O)c1ccc(Cl)c(C(=O)O)c1	-1%
CC(C)C(=O)NC(NCC1CCCO1)C(Cl)(Cl)Cl (stereo not given)	2%
COC(=O)CCc1sc(NC2CCCCC2)nc1-c1ccc(OC)cc1	22µM*
CC(C)(C)n1ncc2c(=O)n(CC(=O)NC3CCCCC3)cnc21	-10%

Of the compounds above, six contain a halogen:
SMILES	HPGD inh
CCCn1c(N)c(N(C)C)c(=O)n(CC(=O)Nc2ccc(OC(F)(F)F)cc2)c1=O	-4%
COc1ccccc1-c1c(C(F)(F)F)oc2cc(OC(=O)c3ccccc3[N+](=O)[O-])ccc2c1=O	-18%
Cc1nn(-c2ccc(F)cc2)c2c1cc(C#N)c1nc3ccccc3n12	?
O=C1NN(c2ccc(F)cc2)C(=O)/C1=C\C=C\c1ccco1	-12%
CN(C1CCCCC1)S(=O)(=O)c1ccc(Cl)c(C(=O)O)c1	-1%
CC(C)C(=O)NC(NCC1CCCO1)C(Cl)(Cl)Cl (stereo not given)	2%

Continued:
SMILES	HPGD inh
CC(=O)c1sc2ccccc2c1OC(=O)c1ccco1	-13%
Cc1cc(NC(=O)CCCS(=O)(=O)c2nc(-c3cccs3)cc(C(F)(F)F)n2)no1	?
COC(=O)CNc1nc(-c2cccnc2)nc2ccccc12	-4%
NCCS(=O)(=O)O	-7%&-2%&-10%
COc1ccc(-c2nc(CS(=O)CC(=O)NCc3ccco3)c(C)o2)cc1OC (stereo not given)	-20%
CC(=O)O[C@H]1CC[C@]2(C)C(=CC[C@H]3[C@H]4C[C@H]5O[C@]6(CC[C@H](C)CN6)[C@H](C)[C@@H]5[C@]4(C)CC[C@@H]32)C1	-7%
COc1ccc(N2CCN(C(c3ccccc3OC)c3nnnn3C3CCCC3)CC2)cc1 (stereo not given)	-16%
CCOC(=O)N1CCN(C(=O)CCSc2ccc(Cl)cc2)CC1	-1%
COCCOc1ccc(C(F)(F)F)cc1NC(=O)c1ccccc1F	?
CC(=O)C1C(c2ccc(F)cc2)NC(=O)NC1(O)C(F)(F)F (stereo not given)	-1%
O=S(=O)(Nc1ccc(N2CCCCC2)cc1)c1ccc(F)c(F)c1	-13%
O=C(NC1(C(F)(F)F)N=C(c2ccccc2)NC1=O)c1ccccc1F (stereo not given)	-13%
Cc1noc(/C=C/N(C)C)c1S(=O)(=O)N1CCCC(C(=O)NCc2cccs2)C1 (stereo not given)	-28%
CCOC(=O)CC(NC(=O)c1cc2cccc(OC)c2oc1=O)c1cccc([N+](=O)[O-])c1 (stereo not given)	?
CCc1nnc(NS(=O)(=O)c2ccc(N3C(=O)C4CC=C(Cl)CC4C3=O)cc2)s1 (stereo not given)	-12%
O=C(c1ccc(F)cc1)N1C2CCC1CC(O)(c1ccccc1F)C2 (stereo not given)	-7%
O=C(Nc1cccnc1)c1ccc(NC(=O)c2ccco2)cc1	?
CN(c1ccc(C(=O)NC2CC3CCC2C3)cc1)S(C)(=O)=O (stereo not given)	-15%
Cc1ccc(-c2cc(C(F)F)n3ncc(C(=O)N4CCN(c5ccccn5)CC4)c3n2)cc1	-26%
O=S(=O)(c1ccccc1)c1nc(-c2ccco2)oc1NCCCN1CCOCC1	-24%
COc1ccc(S(=O)(=O)NC(CC(=O)NCC2CCCO2)c2ccco2)cc1 (stereo not given)	-9%
Cc1cccc(-n2c(C)cc(/C=N/NC(N)=S)c2C)c1	-12%
O=C(Cn1cnc2c(nnn2-c2ccccc2)c1=O)N1CCOCC1	-11%
CCOc1ccc(Cn2nnc(C(=O)Nc3ccc(OC)cc3OC)c2N)cc1	-28%
CCOC(=O)C1CCCc2c1[nH]c1c(C(N)=O)cccc21 (stereo not given)	-30%
Cc1cc(C)cc(C(=O)n2cnnc2N)c1	-7%
O=C(NCCc1ccccc1)c1cc(S(=O)(=O)N2CCOCC2)ccc1F	-10%
COc1cccc(-c2nc(CS(=O)CC(=O)NC3CC3)c(C)o2)c1 (stereo not given)	1%
CCOc1ccc(Nc2nc3ccccc3n3nnnc23)cc1	-33%
COc1ccc(-c2cc(=O)c3cc(C)ccc3[nH]2)cc1	?
COc1ccccc1NC(=O)CSc1nnc(-c2ccoc2C)n1CC1CCCO1 (stereo not given)	-2%
COC(=O)C1=C(CSCc2ccco2)NC(=O)NC1c1cc(C)ccc1C (stereo not given)	-10%
CCN(CCO)c1ccc(-n2c(N)c(C(=O)OC)c3nc4ccccc4nc32)cc1	?
CS/C(=N\S(=O)(=O)c1cccs1)Nc1ccc(Br)cc1F	-2%
Cc1ccc(C2CC(c3ccco3)n3ncnc3N2)cc1 (stereo not given)	-11%
CCC(=O)Nc1nc2ccccc2n1Cc1ccccc1C	-14%
Fc1cccc(C[n+]2csc3ccccc32)c1	4µM*
Oc1ccccc1/C=N/c1c(-c2ccco2)nc2ccccn12	?
C=C1c2cccc(OC)c2O[C@H](C(=O)OCC)[C@@H]1CC(CC)CCCC (stereo not given in full)	-11%
O=C(c1cnn2c(C(F)(F)F)cc(-c3ccc4c(c3)OCO4)nc12)N1CCCC1	4.5µM*
Cc1noc(/C=C/N(C)C)c1S(=O)(=O)NC1CCCCC1	-16%
CCN1CCN(CC(=O)Nc2ccccc2)C(=O)C1=O	-4%
O=C(NC(=S)Nc1ccccc1O)c1ccc(-c2ccc(Cl)cc2)o1	-9%
N#Cc1ccc(-c2csc(NC(=O)c3ccc(S(=O)(=O)N4CCc5ccccc5C4)cc3)n2)cc1	-28%
O=C(/C=C/c1ccccc1Cl)c1cccnc1	28µM*
CC(C)Cc1nnc(NC(=O)CSc2nc(=O)cc(N)n2-c2ccccc2)s1	10%
COc1ccc(N2CC(C(=O)NCCC3=CCCCC3)CC2=O)cc1 (stereo not given)	-8%
CCN1CCN(C(=O)c2cc3cc4cc(OC)ccc4nc3s2)CC1	?
Cc1cc(=O)n2nc(N3CCCC3C(=O)NCCCN3CCCCC3)sc2n1 (stereo not given)	-9%
Cc1cc(C)c2oc(C(=O)Nc3nnc(C(C)C)s3)cc(=O)c2c1	-11%
Cc1cc(C(=O)CSc2nnc(-c3ccccc3F)o2)c(C)n1Cc1cccs1	-7%
O=C(CSCc1c(Cl)cccc1Cl)Nc1nccs1	20µM*
COC(=O)[C@@]1(Cc2ccc(OC)cc2)[C@H]2c3cc(C(=O)N4CCCC4)n(Cc4ccsc4Br)c3C[C@H]2CN1C(=O)c1ccccc1	-7%
CC1(C)NC(C)(C)C(O)(C(N)=O)C1=O (stereo not given)	-10%
Cc1ccc2nc(N3CCN(c4cccc(C)c4C)CC3)c3nnnn3c2c1	-28%
Cc1ccc(NS(=O)(=O)c2ccc(C(=O)N3CCN(c4ccccn4)CC3)cc2)cc1	-10%
COc1ccc(CCNC(=O)c2ccc(CN3CCOCC3)cc2)cc1	-15%
CC(=O)N1CC=CC1(CC(C)C)C(=O)NCc1ccccn1 (stereo not given)	1%
CCCCn1c(Nc2ccccc2)nc2ccccc21	-2%
CC(=O)N1CCC2(CC1)CN(C(=O)Nc1cccc(C#N)c1)C2	-4%
Later entries:
SMILES	HPGD inh
CCCNC(=O)NC(=O)CSc1nc2ccccc2n1CC(C)C	-3%
CC(=O)OC1C[C@@]2(C)C(c3ccoc3)OC(=O)C3O[C@@]32[C@]2(C)C(OC(C)=O)CC3C(C)(C)C(OC(C)=O)CC(OC(C)=O)[C@@]3(C)C12 (stereo not given in full)	21%
CCOc1ccccc1CN1C(=O)c2ccccc2C1C(=O)NCC1CCCO1 (stereo not given)	2%
O=c1cc(N2CCN(Cc3ccccc3)CC2)[nH]c(=O)n1-c1ccc(Br)cc1	-14%
CC(=O)Oc1ccc(-c2csnn2)cc1	-10%
COc1ncc2nc(CCc3ccccc3)c(=O)n(CCC#N)c2n1	-21%
CC(=O)Oc1cc(OC(C)=O)c2c(c1)OC(c1ccc(OC(C)=O)c(OC(C)=O)c1)C(OC(C)=O)C2 (stereo not given)	3%&-4%
C1=C(CCNc2ncnc3c2cnn3-c2ccccc2)CCCC1	?
CCCn1c(-c2ccc(F)cc2)nc2c(NCC3CCCN3CC)nc(C)nc21 (stereo not given)	?
CCOC(=O)c1[nH]c(C)c(C(=O)NCCCN2CCOCC2)c1C	-4%
COc1ccc(CNC(=O)C2CCCN(S(=O)(=O)c3c(C)n[nH]c3C)C2)cc1 (stereo not given)	-1%
CC(=O)Nc1c(C)nn(-c2ccc(C)c(C)c2)c1C	-17%
COc1cccc(C(=O)N/N=C2/SCC(=O)N2CCc2ccc(OC)c(OC)c2)c1	-5%
Cc1ccc(S(=O)(=O)NCCCN2CCOCC2)cc1C	-7%
CCOC(=O)c1nnn(CC(=O)Nc2cccc(Cl)c2C)c1C(=O)OCC	6%
CSc1ccccc1NC(=O)CCn1c(=O)sc2ccccc21	-13%
CCOc1cc(C)c(S(=O)(=O)Nc2ccc3cn[nH]c3c2)cc1C	-19%

Pulled by compound from the list above (5):
SMILES	HPGD inh
O=C(CSc1nc2ccccc2s1)Nc1nccs1	-5%
CCCOc1cccc(C(=O)Nc2cccc(NC(=O)c3ccco3)c2)c1	-13%
Cc1ccc(C2CC(c3ccco3)n3ncnc3N2)cc1 (stereo not given)	-11%
CCCn1c(-c2ccc(F)cc2)nc2c(NCC3CCCN3CC)nc(C)nc21 (stereo not given)	?
Cc1ccc(NCc2nnc(SCC(=O)OC3CCCCC3)o2)c(C)c1	-10%
